TRPV1 potentiator = human TRPV1 potentiation. TRPV1-expressing cells, Fluo-8 calcium influx, capsaicin EC20 potentiation; host cell line not named in the record; control for the full effect not named in the record. potentiation, % at 8.33 µM. 320,000 compounds, 0.02% hits. AID 540277; active means potentiation above 80%; inconclusive means 30% to 80%; inactive means below 30%; also: 0% is about no effect
Target sequence (Q8NER1 whole entry, looked up): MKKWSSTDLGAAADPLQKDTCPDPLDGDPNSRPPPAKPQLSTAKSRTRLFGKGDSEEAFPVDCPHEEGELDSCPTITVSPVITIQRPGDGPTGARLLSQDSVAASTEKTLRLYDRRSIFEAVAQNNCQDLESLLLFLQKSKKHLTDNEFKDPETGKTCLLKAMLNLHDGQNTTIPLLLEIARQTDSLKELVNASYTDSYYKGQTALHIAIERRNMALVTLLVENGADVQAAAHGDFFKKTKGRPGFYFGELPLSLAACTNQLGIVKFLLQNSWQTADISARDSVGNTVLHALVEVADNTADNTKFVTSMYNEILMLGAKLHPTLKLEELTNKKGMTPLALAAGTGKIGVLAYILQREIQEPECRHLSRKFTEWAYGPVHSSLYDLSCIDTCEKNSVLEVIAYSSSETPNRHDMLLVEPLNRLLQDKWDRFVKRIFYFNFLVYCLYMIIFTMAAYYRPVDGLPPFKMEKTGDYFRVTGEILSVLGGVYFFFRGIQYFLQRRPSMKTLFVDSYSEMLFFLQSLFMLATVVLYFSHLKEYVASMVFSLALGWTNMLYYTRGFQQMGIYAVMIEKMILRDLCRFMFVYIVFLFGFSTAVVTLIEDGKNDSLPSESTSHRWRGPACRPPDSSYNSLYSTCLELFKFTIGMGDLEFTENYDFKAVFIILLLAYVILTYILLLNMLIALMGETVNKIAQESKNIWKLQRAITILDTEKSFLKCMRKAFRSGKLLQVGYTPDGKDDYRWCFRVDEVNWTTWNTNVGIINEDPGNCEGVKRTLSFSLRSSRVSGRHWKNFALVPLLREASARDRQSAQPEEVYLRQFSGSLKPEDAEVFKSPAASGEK
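Cells expressing TRPV1 were dye-loaded with Fluo-8 and read kinetically: 10 s baseline, 3 min after compound (agonist portion), then 2 min after EC20 capsaicin (allosteric enhancer portion). Calcium-bound dye fluorescence at 480/520 nm.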
D2 agonist = activates the human D2 dopamine receptor. activation, % (no concentration beside the values). AID 624465. DiscoveRx PathHunter D2 beta-arrestin, luminescence, 90 min; 100% = 57 uM dopamine signal. 360,000 compounds, 0.084% hits; in the data active = activation above about 40%; inconclusive = about 15% to 40%; inactive = below about 15%; also: compound concentration not given in the record; the text of the record calls up to 30% inactive
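Agonist mode: compounds alone added to overnight-plated D2 PathHunter cells for 90 min at 37 C, with 57 uM final dopamine (EC100) defining full response. Beta-arrestin recruitment detected by chemiluminescent reagent, read after 1 h at ambient temperature.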
PINK1 modulator = modulators of PINK1 expression | PINK1 immunofluorescence, high-content cytometry, 24 h | Potency, µM (series often up to 76.6 µM), without a hit: at the top dose activation (PINK1 increase), actives largely listed as activators | 410,000 compounds, 0.2% hits | AID 624263; active = well fitted activation curve with a large enough effect; inconclusive = small, poorly fitted or top-dose-only effect; inactive = flat fitted curve, though single readings scatter; cell line not stated here;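 also: potency is read from the fitted curve at half-maximal effect; % of control where 0% means no effect; nearly all actives have a fitted effect of over 65% in size; a mitochondrial uncoupler was the plate control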
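Compound titrations (5 concentrations, 24 h) on a stable cell line; DMSO and CCCP controls. Endpoint: fixed-cell PINK1 immunofluorescence with mitochondrial, cell and nuclear markers, scanned by microplate cytometer.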
CtBP-E1A blk = CtBP/E1A binding inhibition | AlphaScreen GST-E1A/His-CtBP binding, 1536-well; hits give low values; control for the full effect not named in the record | activity change, % (no concentration beside the values) | 340,000 compounds, 0.49% hits; in the data active means activity change below about -65%; inconclusive means about -30% to -65%; inactive means above about -30%; also: % is scaled to controls: 0 for no effect and ±100 for the full control effect
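In 5 uL wells, 23 nL compound meets equimolar GST-E1A and His-CtBP (5X stock 125 nM each) for 2 h, 37 °C. Beads (5X, 50 ug/mL) then 1 h, 37 °C, dark.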
Six1-Eya2 blk = blocks human Six1 binding to Eya2 | 360,000 compounds, 0.56% hits | activity change, % (no concentration beside the values) | Q15475+O00167 | AlphaScreen GST-Six1/His-Eya2 binding, biochemical; hits give low values; control for the full effect not named in the record; in the data active = activity change below about -65%; inconclusive = about -30% to -65%; inactive = above about -30%; also: % is scaled to controls: 0 for no effect and ±100 for the full control effect
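Homogeneous AlphaScreen proximity assay pairing GST-Six1 with His-tagged Eya2 (added as 5X mix: 250 nM and 500 nM) in 50 mM Tris pH 8.0, 300 mM NaCl, 1 mM TCEP. Glutathione donor and nickel acceptor beads; 1 h, 37 °C, dark.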
Sfp inh = blocks B. subtilis Sfp PPTase activity; 310,000 compounds, 3.5% hits; Biochemical Sfp PPTase activity, qHTS; Potency, µM, without a hit: max response, negative = inhibition, most hits filed as inhibitors; Q9F4F7; AID 1490; active = well fitted inhibition curve with a large enough effect; inconclusive = small, poorly fitted or top-dose-only effect, or another doubt; inactive = no such curve, though single readings can be large or run the other way;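 also: the enzyme is Sfp with the accession as filed and its product quenches rhodamine fluorescence; potency is read from the fitted curve at half-maximal effect; 0% = enzyme reaction without inhibitor and -100% = no enzyme wells; top concentration of the series not given in the record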
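Fluorescence-quenching assay: 15 nM Sfp-PPTase preincubated 15 min at room temperature with compound, then 5 uM rhodamine-CoA and 12.5 uM BHQ-2-labelled YbbR peptide added. Fluorescence (ex 525/em 598 nm) read at start and after 30 min; difference gives rate.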
D2 potentiator = positive allosteric modulators of human D2 dopamine receptor | P14416 | DiscoveRx D2 beta-arrestin cells, luminescence, 90 min; 100% = 57 uM dopamine signal | potentiation, % (no concentration beside the values) | 360,000 compounds, 0.23% hits | AID 624464; active = potentiation of 50% or more; inconclusive = 30% to 50%; inactive = 30% or less;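 also: compound concentration not given in the record; tested on top of an EC20 dose of dopamine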
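PathHunter beta-arrestin assay in DiscoveRx D2 cells. Compounds were added with an EC20 of dopamine (50 nM final) for 90 min at 37 deg C. Luminescence was read 1 h after detection reagent, with 57 uM dopamine as the EC100 control.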
An asterisk follows results filed as active; u = inconclusive; x = not tested or not shown; & = joins results of further samples; [ ] = remark or other dose.

SMILES	TRPV1 potentiator	D2 agonist	PINK1 modulator	CtBP-E1A blk	Six1-Eya2 blk	Sfp inh	D2 potentiator
COc1ccc2c(C)c(C(=O)O)oc2c1	19	-1.2	-0.5%	9	0	5%	0
O=C(C1=C[C@@H](c2ccc(Br)cc2)C[C@@H](OCc2ccc(CO)cc2)O1)N1CCN(Cc2ccccc2)CC1	-17	8.5	-0.6%	-3	-4	0%	-4
COc1ccc(-c2oc(=O)c3cc(OC)c(OC)cc3c2-c2ccc3c(c2)OCO3)cc1	x	-2.6	-0.3%	0	2	x	-1
CC(Sc1nnc(C(C)Oc2ccc(F)cc2)o1)C(=O)NCc1ccc2c(c1)OCO2 (centres undefined)	x	4.3	4.2%	-3	-20	x	-12
Cc1ccc(-c2csc(NC(=O)Cn3[nH]c(=O)c4ccccc4c3=O)n2)cc1	16	-2.7	u	-1	-16	-10%	2
CN(C)c1ccc(N=Nc2nccs2)cc1	x	-17	2.1%	u	-83*	x	-28
Cc1ccc(CN(C)C(=O)c2cc(COc3ccc(F)cc3Cl)on2)o1	8	-1.0	-0.1%	6	-2	35µM*	-5
CCN1C[C@@H]2[C@@H]3C(=O)N(Cc4ccccc4)C(=O)[C@@H]3[C@](Cc3ccccc3)(C1=O)N2C(=O)c1ccc(Br)cc1	x	-0.7	-0.8%	-1	-2	x	3
O=P1(O)CC2=C(CC=CC2)C1	x	-4.8	0.7%	-10	-15	x	-7
Cc1ccc(N(CC(=O)NCc2ccc(F)cc2)C(=O)c2csnn2)c(C)c1	5	-9.1	1.6%	-8	-16	11%	-1
Cc1cc(C)c(C(=O)C[n+]2cccc(C(N)=O)c2)c(C)c1	6	-6.1	0.4%	-3	1	2%	-1
CS(=O)(=O)c1ccc(C(=O)NC2CCCc3ccccc32)cc1 (centres undefined)	-4	-0.1	0.1%	2	6	3%	-2
CCCn1cc(NC(=O)c2cc3n(n2)C(C(F)(F)F)CC(c2ccccc2)N3)cn1 (centres undefined)	-13	0.6	7.5%[38.3 µM]	6	2	18%	2
COc1ccc2cc(S(=O)(=O)N3CCCCCC3)ccc2c1	11	-1.7	2.6%	6	7	5%	-6
CCCC[C@@H]1C[C@H]1[C@@H](NC(=O)c1cccs1)c1ccc(Cl)cc1	23	-3.2	14%	28	21	7%	3
Cc1onc(-c2c(F)cccc2Cl)c1C(=O)N1CCc2ccccc2C1	-4	-1.3	-0.6%	12	1	-9%	8
CC(C)(C)C(=O)Nc1ccccc1C(=O)Nc1cccnc1	-1	0.1	1.2%	-2	15	7%	-2
COc1ccc(O)c(/C=c2/sc3nc4cc(C)c(C)cc4n3c2=O)c1	2	0.2	2.0%	5	0	8.9µM*	-5
COc1ccc(C(=O)C(C)OC(=O)c2cccc(S(=O)(=O)Nc3cc(Cl)c(OC)cc3OC)c2)cc1 (centres undefined)	16	-4.7	0.8%	-4	-15	-11%	-11
Cc1cc(OCC(O)CN2CCc3ccccc3C2)ccc1Cl (centres undefined)	16	9.5	7.6%	1	1	-4%	-23
COc1ccccc1N1C(=O)CC(Sc2nccc(C)n2)C1=O (centres undefined)	2	-3.4	-0.5%	0	-1	-4%	-23
CC(C)Sc1nc2ccccc2n1CC(N)=O	-1	-1.1	-0.9%	1	5	10%	-3
COc1ccc(CCNC(=O)CCc2ccccc2)cc1OC	x	-1.4	-1.5%	-3	-1	x	2
CC1CCC2(CC1)Nc1ccccc1C(=O)N2c1ccccc1 (centres undefined)	-2	3.3	-1.2%	6	-1	10%	-15
COCCn1c(N)c(N(Cc2ccccc2)C(=O)CN2C(=O)NC(C)(c3ccccc3)C2=O)c(=O)[nH]c1=O (centres undefined)	5	-3.8	0.9%	4	-2	22%	-5
COc1ccc(C(=O)NCCCOC(=O)c2ccc(OC)cc2)cc1	3	-0.7	1.8%	-1	0	12%	5
O=C(NCc1ccc(F)cc1)C1(c2cccs2)CCOCC1	28	2.0	1.5%&1.0%	-5	-2	10%	-15
COc1ccccc1C1c2[nH]c3ccccc3c2CCN1Cc1cnc(C)s1 (centres undefined)	0	3.9	5.0%	x	-2	8%	-6
COc1ccc(CC(NC(C)=O)C(=O)NC2CCN(C(=O)Nc3ccc(Cl)cc3)CC2)cc1OC (centres undefined)	7	-0.8	-1.0%	0	-3	6%	3
COc1ccc(NC(=S)N/C(=N/S(=O)(=O)c2ccc(C)cc2)c2ccccc2)cc1	5	-3.7	9.5%	6	-7	50µM*	-11
O=C(CN1CCC(c2nc3ccccc3[nH]2)CC1)Nc1ccc2c(c1)OCO2	2	-4.1	6.1%[38.3 µM]	-4	-6	16%	-17
Cc1ccc(C(=O)N/N=C2\SCC(=O)N2c2cc(C)ccc2C)cc1	6	1.6	5.3%	8	1	71µM*	-8
O=C(Cc1ccccc1)Nc1nnc(-c2cccs2)s1	-21	-0.7	1.8%	-1	4	0%	-18
Cc1ccc(C)c(-n2c(-c3ccc(Br)cc3)csc2=NC(=O)c2ccccc2F)c1	16	7.8	0.7%	3	3	3%	-5
Cc1ccc(-c2csc3ncnc(OCC(=O)NC(=O)NCc4ccco4)c23)cc1	-2	-1.3	5.2%[38.3 µM]	0	-11	u	-7
O=S(=O)(O/N=C1\CCCc2ccccc21)c1ccccc1	3	0.3	1.5%	4	8	9%	-19
Cc1nonc1C1CCCN1Cc1nc(-c2ccc(F)cc2F)oc1C (centres undefined)	-10	-2.6	4.6%	1	0	-24%	3
Cc1nc2ccccc2n1C(=O)c1cc(-c2ccc(Br)cc2)nc2ccccc12	-3	-2.8	5.6%	6	18	2%	-2
COc1ccc(C(=O)c2c(-c3ccc(OC)cc3)oc3ccc(-c4cc(OC)c(OC)c(OC)c4)cc23)cc1	x	0.4	0.8%	-15	-8	x	-9
COc1ccc(N(CC(=O)Nc2ccc3c(c2)OCCO3)S(=O)(=O)c2c(C)nn(C)c2C)cc1	x	-0.7	-4.2%	2	1	13%	-6
COC(=O)C(C)Sc1nc2c(cnn2-c2ccccc2)c(=O)[nH]1 (centres undefined)	x	-2.3	0.1%	0	1	-11%	-1
Cc1ccc(/C=[N+](/[O-])C2SC(=S)N(C)C2(C)C)cc1 (centres undefined)	-13	-2.6	-0.5%	2	-1	-13%	-10
COc1ccc(OCc2cc(C(=O)NC(C)Cn3cncn3)no2)c(Cl)c1 (centres undefined)	11	0.9	-1.4%	-26	2	1%	-3
Cc1ccc(C2CC2C(=O)NN)cc1 (centres undefined)	0	-3.9	-1.8%[38.3 µM]	9	2	7%	-7
C[C@H](CO)N1C[C@H](C)[C@@H](CN(C)C(=O)c2cc(-c3ccccc3)on2)OCc2cnnn2CCCC1=O	x	-0.5	1.4%	4	0	x	1
Cc1nc(SCC(=O)NCc2ccco2)c2c(C)c(C)sc2n1	-19	-0.6	-0.3%	19	6	2%	-2
Cc1nn(CCCC(=O)NCc2ccccc2)c(=O)c2nn(-c3ccccc3)c(C)c12	5	0.5	3.3%&0.0%	-9	0	13%	-11
CCN(CC)C(=S)Oc1ccc(Cl)cc1Cl	x	5.6	10%	19	22	11%	0
CSc1ccc(C(=S)N2CCCCCC2)cc1	-7	-1.8	4.2%	-12	-2	-21%	1
Nc1ccccc1-n1nc2ccc3ccccc3c2n1	x	-1.0	6.6%	24	93	x	-9

4 structures from above, ordered by formula weight, ascending.
SMILES	TRPV1 potentiator	D2 agonist	PINK1 modulator	CtBP-E1A blk	Six1-Eya2 blk	Sfp inh	D2 potentiator
Nc1ccccc1-n1nc2ccc3ccccc3c2n1	x	-1.0	6.6%	24	93	x	-9
CSc1ccc(C(=S)N2CCCCCC2)cc1	-7	-1.8	4.2%	-12	-2	-21%	1
COC(=O)C(C)Sc1nc2c(cnn2-c2ccccc2)c(=O)[nH]1 (centres undefined)	x	-2.3	0.1%	0	1	-11%	-1
Cc1nc(SCC(=O)NCc2ccco2)c2c(C)c(C)sc2n1	-19	-0.6	-0.3%	19	6	2%	-2

The results go on.
SMILES	TRPV1 potentiator	D2 agonist	PINK1 modulator	CtBP-E1A blk	Six1-Eya2 blk	Sfp inh	D2 potentiator
Nc1cc(N)nc(SCc2ccccc2)n1	8	-0.3	2.1%[38.3 µM]	-2	-2	9%	0
O=S(=O)(c1ccccc1)N1CCC2(CC1)CO2	-12	1.9	-0.8%	10	-1	-5%	7
CCc1nnc(NC(=O)CC23CC4CC(CC(Br)(C4)C2)C3)s1	10	-3.2	9.4%	7	7	12%	-4
COc1ccccc1NC(=O)Nn1cnnc1	1	0.3	-0.9%	-2	-11	5%	-9
CCOC(=O)c1[nH]c2ccc(Br)cc2c1NC(=O)CCN1CCC(C(=O)OCC)CC1	-5	-4.4	-1.9%	-3	-3	7%	-15
Cc1ccc(NC(=O)NCC2CCN(Cc3cccc(Cl)c3)CC2)cc1Cl	-12	3.1	-1.3%&2.9%	-1	0	7%	-9
CCOC(=O)c1sc(NC(=O)CSc2nc3c(c(-c4ccc(OC)cc4)c2C#N)CCCC3)c(C#N)c1C	-5	-0.4	0.5%	2	-2	20%	-13
c1ccc(C2=NNC(c3ccco3)=Nc3ccccc32)cc1	-6	-0.4	0.2%	-17	-5	12%	-15
Cc1cc(OCC(=O)Nc2cccc(S(=O)(=O)N3CCCC3)c2)ccc1Cl	-14	2.2	1.1%	-8	-1	x	-3
O=C(Nc1ccc(N2CCOCC2)c(Cl)c1)c1cccc(-n2cnnc2)c1	1	7.8	-1.1%	-4	-3	8%	13
Cc1onc(-c2ccccc2)c1C(=O)NC(=S)NNC(=O)c1ccc(O)cc1	-4	-0.2	0.8%	-4	-9	-27%	-19
CC1CCCCN1CC(O)COCc1ccccc1 (centres undefined)	-18	-1.6	3.2%	-1	6	10%	-5
COc1ccc(OC)c(NC(=O)CSc2nc(O)cc(=O)n2CC(C)C)c1	x	-0.9	1.9%	15	14	x	-4
O=C1/C(=C\c2ccccn2)SC(=S)N1Nc1ncc(C(F)(F)F)cc1Cl	4	2.7	2.8%[38.3 µM]	-11	-9	50µM*	-12
COc1ccc(C(=O)N[C@H](C(=O)NC2CCCCC2)C(C)C)cc1	x	0.0	0.3%	0	0	x	-3
Cc1ccc(S(=O)(=O)n2cccc2CO)cc1	27	0.1	1.5%	0	1	x	0
CSc1cccc(NC(=O)NNC(=O)C2CCN(S(=O)(=O)N(C)C)CC2)c1	4	-3.5	-0.2%	-2	-1	19%	-5
